# Screening data from PubChem.
# Vif TR-FRET = HIV-1 Vif–A3G interaction blockers – biochemical, TR-FRET, GST-Vif 1-94, biotin-A3G peptide, dose response retest, primary screen (AID 1117319). TR-FRET GST-Vif / biotin-A3G peptide binding; higher % means a stronger effect; test concentration not given here; strong numbers were not always called active. inhibition, %, or IC50 in µM where a hit was titrated. 0.57% of 260,000 active;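 active means above the screen mean plus three standard deviations and confirmed in dose response; inconclusive means results disagree or hit not tested in dose response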;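 further: Vif residues 1-94 fused to GST binding biotinylated APOBEC3G peptide 110-148; 0% = full assay without inhibitor and 100% = GST in place of GST-Vif; retest series ran down from 100 µM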
# Calb FLC = C. albicans growth modulation with fluconazole; C. albicans CaCi-2 (fluconazole-resistant clinical isolate) + fluconazole, Alamar Blue growth, 48 h; growth inhibition, % (concentration not given with the values); 0.57% of 300,000 active; AID 1979;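 active means most replicates above 75%; inconclusive means exactly half above 75%; inactive means most below 75%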;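 further: all wells also contain fluconazole at 8 µg/ml as a sub-toxic cotreatment; 0% = median of DMSO wells and 100% = median of geldanamycin control wells; wells of about 8 µL received 7.5 nL stock; the first replicate is given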
# RanGTP-Impb inh = inhibitors of RanGTP-importin-beta interaction, primary screen, biochemical, FRET, CFP-Ran, YFP-importin-beta, homogeneous | inhibition, % (concentration not given with the values) | AID 2216 | cell-free CFP-Ran/YFP-importin-beta FRET ratio | 1.1% of 300,000 active;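 active means most replicates above 15%; inconclusive means exactly half above 15%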;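 further: 0% = DMSO wells and 100% = Ran loaded with GDP instead of GTP; wells of about 40 µL received 100 nL stock; the first replicate is given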
# Bfl-1 A1 inh = inhibitors of the anti-apoptotic protein A1, read as caspase activation; MEF A1-2A-BIM cells, Caspase-Glo 3/7 luminescence, 3 h; percent of clofoctol response, vehicle zero; caspase activation, % (concentration not given with the values); 0.066% of 330,000 active; AID 2462;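 active means over half of replicate activation scores above 10%, or exactly half above 10 with the replicate mean above 10; inconclusive means replicate mean below 10 yet half the replicates above 10; inactive means over half of replicates below 10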;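 further: wells of about 30 µL received 50 nL stock; many hits fall short of the cut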
# Ecoli rRNA inh = inhibits bacterial ribosomal RNA function over humanized ribosomes; 1.6% of 350,000 active; GFP signal change (wild-type ribosome), % (test concentration not listed); E. coli WT GFP vs humanized-ribosome RFP mutants, fluorescence, 24 h; hits give low values; DMSO median 0, no signal -100;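 active means significant combined selectivity score with lowered wild-type GFP, culture density cut under 30%, mutant RFP and density less affected; inactive means any of these conditions unmet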; further: one replicate is shown; some compounds called inactive have numbers as strong as hits
# AF4-AF9 inh = inhibitors of human MLL-AF4/AF9 interaction; P42568; AlphaScreen, biotin-AF4 peptide binding to FLAG-AF9; inhibition, % at 10 µM; 0.47% of 350,000 active;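 active means every replicate reaching a set inhibition limit, whatever the replicate mean, cut at about 25% in these data; inconclusive means mean inhibition reaches that limit but some replicates miss it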;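 further: 0% = plate neutral control median and 100% = total signal loss; the record names both 10 and 1 µM as test concentration; the first replicate is given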
# Target sequence (P42568 whole entry, looked up): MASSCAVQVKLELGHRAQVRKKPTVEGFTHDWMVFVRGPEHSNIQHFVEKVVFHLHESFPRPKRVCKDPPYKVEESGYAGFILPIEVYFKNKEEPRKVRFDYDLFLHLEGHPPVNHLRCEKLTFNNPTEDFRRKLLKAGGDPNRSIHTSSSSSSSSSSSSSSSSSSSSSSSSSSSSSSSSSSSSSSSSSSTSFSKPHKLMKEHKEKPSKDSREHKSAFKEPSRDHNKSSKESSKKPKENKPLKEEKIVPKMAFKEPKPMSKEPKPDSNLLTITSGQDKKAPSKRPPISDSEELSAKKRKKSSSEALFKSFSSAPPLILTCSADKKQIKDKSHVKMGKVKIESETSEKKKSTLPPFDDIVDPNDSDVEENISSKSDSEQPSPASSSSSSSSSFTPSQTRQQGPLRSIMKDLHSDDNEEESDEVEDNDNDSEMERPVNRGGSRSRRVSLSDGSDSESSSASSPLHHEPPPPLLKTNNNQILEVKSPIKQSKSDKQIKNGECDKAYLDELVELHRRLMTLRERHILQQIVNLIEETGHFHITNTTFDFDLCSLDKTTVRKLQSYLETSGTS
# T cruzi repl = T. cruzi replication inhibition; 1.4% of 300,000 active; AID 1885; T. cruzi beta-gal in NIH3T3, luminescence, 90 h; inhibition, % (test concentration not listed);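 active means mean inhibition across valid replicates above about 55%, limit read from the data; inconclusive means mean below that limit but half or more replicates reach it; inactive means mean below it, under half of replicates reach it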;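 further: signal also drops with host cell toxicity which is not excluded here; 0% = plate median of DMSO wells and 100% = zero luminescence signal; higher percent means less beta-gal luminescence so fewer parasites; stock transfer was 50 nL into about 50 µL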
# Beta cell apopt = blocks beta cell apoptosis. INS-1E cytokine-induced death, ATP luminescence, 48 h; percent of positive-control rescue, neutral wells zero. protection from apoptosis, % (no concentration beside the values). AID 435005. 0.8% of 300,000 active;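 active means all replicates at 75% or more, or half of them and the mean; inconclusive means half reach 75% but not the mean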;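 further: 0% = cytokine-treated negative control wells and 100% = positive control rescue; higher means more ATP so stronger rescue from cytokine killing; wells of about 40 µL received 100 nL stock; the first replicate is given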
# Ecoli rRNA inh OD600 = also measured in Ecoli rRNA inh; calls as there; OD600 change, %; measured here: OD600 growth;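 optical density of the mix in the first replicate; 0 = DMSO median and -100 = no signal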
# Ecoli rRNA inh RFP = further read-out of Ecoli rRNA inh, marked with its call; RFP signal change, %; measured here: RFP humanized mutant strains;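 first replicate; 0 = DMSO median and -100 = no signal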
# Starred values were filed as active, the others as inactive; ? = inconclusive; . = no result given. These rows are one share of the data (hit frequency here may not be typical).
SMILES,Vif TR-FRET,Calb FLC,RanGTP-Impb inh,Bfl-1 A1 inh,Ecoli rRNA inh,Ecoli rRNA inh OD600,Ecoli rRNA inh RFP,AF4-AF9 inh,T cruzi repl,Beta cell apopt
CC1CCCCC1NC(=O)c1ccc(CNc2c(N3CCCC3)c(=O)c2=O)cc1 (stereo unspecified),-1%,0,0.1,-0.3,11,8,2.2,4.7,-1,1
COc1ccccc1CC(=O)Nc1cc(OC)c(NC(=O)c2ccccc2)cc1OC,.,-2,7.2,-0.5,15,8,1.8,?,0,6
COc1ccc2c(c1)SCC(=O)N2C,-4%,3,-0.8,0.5,.,.,.,.,0,-1
CC(=O)Nc1cccc(OCc2c(F)cccc2Cl)c1,-4%,11,1.5,-0.1,-16,-33,-4.2,-19,3,.
CC1(OC(=O)C2CCCC2)C(=O)C=C2C=C3CCCN3C=C2C1=O (stereo unspecified),.,12,?,-0.2,.,.,.,.,-9,-6
C#CCOCCOCCOCCNc1nc(N2CCOCC2)nc(N2CCN(C(=O)[C@H](CCCCN)n3cc([C@@H](N)CO)nn3)CC2)n1,.,2,-3.6,2.5,.,.,.,.,-19,1
CC(=O)Nc1ccc(-c2ccc3nnc(C)n3n2)cc1,1%,-2,-5.0,0.1,2,1,3.5,-22,1,-6
Cc1ccccc1-c1nnc(SCC(=O)N(CC(C)C)c2c(N)n(CC(C)C)c(=O)[nH]c2=O)n1C,2%,2,2.6,0.2,-5,-6,-6.6,-1.5,-3,0
O=C(CN1CCOCC1)Nc1ccc(S(=O)(=O)N2CCCCCC2)cc1,-2%,-1,1.0,2.3,.,.,.,.,.,-16
O=C1C2C3C=CC(C3)C2C(=O)N1c1ccc(-c2nc3ccccc3c(=O)o2)cc1 (stereo unspecified),.,12,0.9,-1.3,1,-1,-2.3,0.3,-13,1
CC(C)[C@H](NC(=O)NCc1ccco1)C(=O)O,5%,1,-0.1,1.4,.,.,.,.,-1,-6
Cc1cccnc1NC(=O)Cn1c(=O)oc2ccccc21,.,0,1.0,0.0,7,12,2.0,0.7,-21,-10
O=C(NN(C(=O)c1ccccc1)c1ccccc1)c1ccccc1,71µM*,0,3.9,0.0,8,14,11,7.9,-9,-10
Cc1ccc(C(=O)Cn2nc(C(=O)O)c3ccccc3c2=O)cc1C,.,0,-0.5,-0.2,15,7,-0.2,4.3,-11,-2
Cn1cc(Cl)c(C(=O)N(Cc2ccccc2)c2ccccn2)n1,.,-1,0.8,-0.4,11,0,-1.6,-1.4,-17,0
CC1(C)Cc2c(sc3ncnc(NNC(=S)NCc4ccccc4)c23)CO1,0%,23,-3.7,1.3,-34*,-25*,-5.3*,-1.9,-52,-4
O=C(NC1CCCCC1)N1CCC(c2nc3ccccc3[nH]2)CC1,-5%,-20,0.1,0.6,-5,4,8.4,-0.8,-10,-2
Cc1ccc(-n2c(SCC(=O)NCCC3=CCCCC3)nc3n[nH]c(C)c3c2=N)cc1Cl,.,-3,-0.1,0.0,8,7,1.1,-1.7,14,33
CCOC(=O)c1c(NC(=S)Nc2ccc(OCC)cc2)sc2c1CCN(C)C2,7%,10,19*,-0.4,10,2,1.0,3.4,.,-5
COC(=O)c1cc(S(=O)(=O)Nc2cc(S(=O)(=O)N(C)C)ccc2C)oc1C,-7%,9,4.0,-0.6,-6,-4,-2.1,-2.5,-16,0
Cc1cccc(C)c1NC(=O)CN1C(=O)C2CC=CCC2C1=O (stereo unspecified),4%,.,.,-0.3,.,.,.,-2.4,.,2
COc1cc(CCC(=O)OCC(=O)Nc2ccccc2C#N)cc(OC)c1OC,-13%,4,-0.3,0.2,9,8,3.6,-1.9,-10,-6
O=C(O)CCCC(=O)NNc1ncnc2ccccc12,0%,-7,-1.0,0.2,.,.,.,.,-35,1
C=CCNC(=S)NNC(=O)c1cccc2ccccc12,6%,7,13,0.1,.,.,.,.,-21,6
Cc1nc(SCc2cccc(C(=O)O)c2)nc2c1CCCC2,.,-6,1.6,1.1,-8,-9,4.3,-1.7,5,0
CC[C@@]1(C(=O)OC)N[C@H](CN(C)C(=O)NC(C)C)[C@@H]2C(=O)N(C)C(=O)[C@@H]21,-1%,.,.,0.4,6,5,-0.6,-0.6,.,-7
Cc1ccc(Cn2c(N3CCNCC3)nc3c2c(=O)[nH]c(=O)n3C)cc1,.,1,3.1,0.4,16,24,1.1,-2.9,-1,2
Cc1cc(N/N=C/c2ccncc2)nc2ccccc12,9%,60,0.6,.,-36,-43,-5.8,5.6,23,.
O=C(CSc1nccn1Cc1ccco1)Nc1ccccc1F,6%,7,0.6,-0.3,10,15,1.4,-1.3,-8,-11
C=CCn1c(C)cc(C(=O)COc2ccc(C)nc2[N+](=O)[O-])c1C,27%,-24,1.2,0.1,.,.,.,.,-1,-4
Cc1ccc(C(=O)Nc2c(C#N)c(C)c(C)n2Cc2ccccc2)cc1,0%,-8,0.5,0.8,.,.,.,.,5,6
Cc1ccc(S(=O)(=O)/N=C2/NC(=O)/C(=C/c3ccc(Br)o3)S2)cc1,15%,9,1.5,-0.2,.,.,.,.,-8,.
O=[N+]([O-])c1cc([N+](=O)[O-])c2cccnc2c1Oc1ccccc1O,.,6,-0.2,0.5,7,3,-2.7,-9.3,8,-3
O=C(COC(=O)CCC(=O)c1ccc(Cl)cc1)NC1CC1,.,?,?,0.0,-2,0,-5.2,-1.1,-4,2
CN(CCO)c1cc(N2CCCCC2)c2nonc2c1[N+](=O)[O-],3%,-3,-5.1,-0.3,7,6,33,0.8,4,-5
Cc1cc(/C=N/NC(=O)Cn2c3ccccc3c(=O)c3ccccc32)c(C)n1-c1ccc(Cl)cc1,4%,11,.,.,-4,2,0.2,-1.9,3,.
CCCc1cc(=O)oc2cc(C)cc(O)c12,11%,?,6.0,0.9,.,.,.,.,-11,2
O=C(CNC(=O)c1ccc(Br)o1)NNC(=O)c1ccccc1F,.,-2,2.6,0.3,4,12,-2.0,-0.2,-3,-12
Cc1cc(C)n(CC(O)COc2ccccc2)n1 (stereo unspecified),0%,0,-4.1,-0.2,.,.,.,.,11,-1
COc1cccc2cc(CC(=O)c3cc(C)ccc3C)c(=O)oc12,-8%,-6,-2.2,-0.8,-8,-8,-2.0,1.2,-7,-2

# Molecules listed so far with two or more sulfur atoms:
SMILES,Vif TR-FRET,Calb FLC,RanGTP-Impb inh,Bfl-1 A1 inh,Ecoli rRNA inh,Ecoli rRNA inh OD600,Ecoli rRNA inh RFP,AF4-AF9 inh,T cruzi repl,Beta cell apopt
CC1(C)Cc2c(sc3ncnc(NNC(=S)NCc4ccccc4)c23)CO1,0%,23,-3.7,1.3,-34*,-25*,-5.3*,-1.9,-52,-4
CCOC(=O)c1c(NC(=S)Nc2ccc(OCC)cc2)sc2c1CCN(C)C2,7%,10,19*,-0.4,10,2,1.0,3.4,.,-5
COC(=O)c1cc(S(=O)(=O)Nc2cc(S(=O)(=O)N(C)C)ccc2C)oc1C,-7%,9,4.0,-0.6,-6,-4,-2.1,-2.5,-16,0
Cc1ccc(S(=O)(=O)/N=C2/NC(=O)/C(=C/c3ccc(Br)o3)S2)cc1,15%,9,1.5,-0.2,.,.,.,.,-8,.

# (continued)
SMILES,Vif TR-FRET,Calb FLC,RanGTP-Impb inh,Bfl-1 A1 inh,Ecoli rRNA inh,Ecoli rRNA inh OD600,Ecoli rRNA inh RFP,AF4-AF9 inh,T cruzi repl,Beta cell apopt
CSc1sccc1/C=C(/C#N)C(=O)c1ccco1,.,5,-3.1,-0.1,-1,3,4.9,-1.1,-6,-14
O=C(CN1C(=O)c2ccc([N+](=O)[O-])cc2C1=O)NC1CCCCCC1,3%,-4,0.2,0.5,15,18,2.9,-0.7,3,-3
O=C(COc1ccc(Cl)cc1)Nc1ccc2c(c1)CCC2,.,3,3.7,-0.6,.,.,.,.,-11,3
Cc1ccc(NC(=S)NC(=O)C2CC2)c(C)c1,1%,-22,0.9,0.7,-3,-9,-1.6,1.1,-6,-2
Cc1ccc(NC(=O)CSCC(N)=O)cc1C,8%,4,-1.6,1.1,.,.,.,.,17,0
CCc1cc2c(cc3c(=O)n(CC(=O)N4CCN(C)CC4)ncn32)s1,0%,-3,1.7,0.9,6,10,2.1,-1.4,-3,-9
CCC1CCCCN1C(=O)c1ccc(OC)c(OC2CCN(C(C)=O)CC2)c1 (stereo unspecified),.,-1,2.8,.,-2,15,1.9,-7.1,0,.
CCCn1c(=S)[nH]c2cc(C(=O)N3CCN(C(=O)OCC)CC3)ccc2c1=O,.,-3,4.8,0.2,13,11,1.1,-1.7,-28,4
CCn1cc(C(=O)O)c(=O)c2cc(F)c(N3CCN(S(=O)(=O)c4ccc(NC(=O)OC)cc4)CC3)cc21,.,4,-0.4,-1.1,.,.,.,3.2,-7,-5
O=c1c(Cl)c(NCc2ccco2)cnn1C12CC3CC(CC(C3)C1)C2,6%,-26,-0.5,-0.2,-7,-12,-5.8,3.3,12,2
Cc1ccc(S(=O)(=O)N(C)C)cc1NC(=O)C(C)OC(=O)C1CCCCC1 (stereo unspecified),-4%,.,.,0.7,8,12,3.8,-3.4,.,-3
CC(NC(=O)CN1C(=O)c2ccccc2C1=O)c1ccccc1 (stereo unspecified),-1%,.,-3.2,1.0,8,-2,1.5,-4.8,-9,-8
CC(=O)NC1(C(F)(F)F)NC(=O)N(C2CCCCC2)C1=O (stereo unspecified),19%,7,2.0,-0.6,.,.,.,.,-13,3
O=C(COC(=O)/C=C/c1cccc(Cl)c1)Nc1cccc(S(=O)(=O)NC2=NCCC2)c1,-5%,.,.,-0.2,-4,-12,2.4,5.4,.,-3
Cc1cc2nc(CCN(C(=S)NCC(C)C)C3CCCC3)[nH]c2cc1C,?,-23,-2.0,-0.1,.,.,.,.,48,69
O=C(Cn1ccc([N+](=O)[O-])n1)N1CCCCC1,2%,-11,-4.4,-1.5,5,2,-1.0,-1.8,1,5
COc1cccc(CNC2CCCC2)c1,1%,1,?,0.1,10,7,-8.0,4.2,0,3
CCOC(=O)C1=C(COC(=O)c2cc(OC)c(OC)cc2[N+](=O)[O-])NC(=O)NC1C (stereo unspecified),8%,2,-0.1,-0.4,1,2,5.2,2.6,2,-10
CC(=O)Nc1ccc(C(=O)CN2CCN(c3ccccc3)CC2)cc1,.,-4,0.4,0.5,0,6,-1.0,1.5,-6,-6
